Rango release inh – inhibition of RanGTP-driven Rango-importin beta dissociation | Biochemical FRET Rango-importin beta, RanGTP-induced dissociation | Potency, µM (highest dose often 46.1 µM), inactives show top-dose activity change, negative = inhibition | 340,000 tested, 0.071% active | AID 540253; active means falling FRET ratio curve, often poorly fitted, with flat reads before Ran was added; inconclusive means other falling curves, or compound fluorescence or quenching; inactive means flat or rising ratio curve;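 further: potency means the concentration at half of the fitted maximal effect; % of control where 0% means no effect; nearly all actives have a fitted effect of over 45% in size; -100% = wells without RanGTP and RCC1; the record marks most hits as doubtful in a second field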
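FRET read at 45 min, room temperature: inhibitors block the CFP/YFP signal rise when RanGTP (0.6 uM Ran, 2 mM GTP, 0.2 uM RCC1) frees Rango (0.1 uM) from importin beta (0.25 uM). Pre-read after 5 min compound exposure flags interference.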
miR-21 reporter – raises the signal of a miR-21 reporter; HeLa miR-21 FLuc reporter, luciferase, 48 h; Potency, µM (titrated, usually from 38.3 µM), without a hit: at the highest dose reporter change, positive = more light; 340,000 tested, under 10 active; active = well fitted rising curve with a large enough effect; inconclusive = small, poorly fitted or top-dose-only effect; inactive = no such curve, though single readings can be large or run the other way;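 further: % of control where 0% means no effect; miR-21 action dims this reporter so a rising signal means less miR-21 action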
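Compounds were titrated across several concentrations (up to approximately 40 uM) and incubated 48 hours with HeLa miR-21-FLuc reporter cells (miR-21 target sequence downstream of FLuc, endogenous miR-21). Readout was firefly luciferase luminescence after lytic detection reagent.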
Rango-impB inh – Rango-importin beta binding inhibition | Q14974 | Rango CFP/YFP FRET sensor + importin beta, 45 min | Potency, µM (titrated, usually from 92.2 µM), for the others: at the top dose inhibition of complex formation | 340,000 tested, 0.031% active; active = rising FRET ratio curve, often small or poorly fitted; inconclusive = mostly compound fluorescence or quenching in the first reads; inactive = flat curves in all reads;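 further: potency means the concentration at half of the fitted maximal effect; 0% = DMSO wells and 100% = buffer wells lacking importin beta; nearly all actives have a fitted effect of over 15% in size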
Target sequence (Q14974 whole entry, looked up): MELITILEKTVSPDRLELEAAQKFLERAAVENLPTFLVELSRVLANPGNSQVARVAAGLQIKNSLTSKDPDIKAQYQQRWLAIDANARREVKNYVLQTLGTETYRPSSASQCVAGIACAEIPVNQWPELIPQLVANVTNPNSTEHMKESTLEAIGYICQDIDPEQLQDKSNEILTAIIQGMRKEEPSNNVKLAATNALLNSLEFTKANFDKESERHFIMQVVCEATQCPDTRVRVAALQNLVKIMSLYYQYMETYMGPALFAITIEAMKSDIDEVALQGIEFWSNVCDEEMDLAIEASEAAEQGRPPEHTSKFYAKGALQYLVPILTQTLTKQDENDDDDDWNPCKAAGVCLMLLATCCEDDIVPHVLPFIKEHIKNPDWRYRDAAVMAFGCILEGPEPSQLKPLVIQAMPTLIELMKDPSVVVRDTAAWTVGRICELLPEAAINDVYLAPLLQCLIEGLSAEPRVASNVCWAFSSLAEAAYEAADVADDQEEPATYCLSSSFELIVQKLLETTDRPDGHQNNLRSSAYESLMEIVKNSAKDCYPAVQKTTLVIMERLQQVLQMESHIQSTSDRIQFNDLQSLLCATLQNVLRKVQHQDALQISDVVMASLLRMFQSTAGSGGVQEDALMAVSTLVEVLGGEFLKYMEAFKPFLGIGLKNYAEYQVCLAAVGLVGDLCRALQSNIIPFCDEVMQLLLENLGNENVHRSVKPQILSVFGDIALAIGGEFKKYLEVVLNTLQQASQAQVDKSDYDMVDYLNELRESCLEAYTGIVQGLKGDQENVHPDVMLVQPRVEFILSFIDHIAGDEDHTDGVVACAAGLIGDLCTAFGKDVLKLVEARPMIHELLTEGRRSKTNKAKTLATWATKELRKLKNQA
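FRET biosensor (snurportin 1 IBB flanked by EYFP and cerulean), 50 nM, with compound 5 min, then 0.125 microM importin beta in PBS, 1 mM DTT, 0.02% Tween-20, 0.1% BSA. CFP/YFP ratio read after 45 min at room temperature; pre-read flags interference.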
GLA inh pH 4.5 – alpha-galactosidase A (human) inhibition, pH 4.5 | P06280 | purified enzyme, 4-MU-alpha-Gal fluorescence, pH 4.5 | activity change, negative = inhibition, % at 105 µM | 230,000 tested, under 10 active | AID 1467; inconclusive = small, poorly fitted or top-dose-only inhibition, or a rising curve; inactive = flat fitted curve, though single readings scatter; no compound was filed as active;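 further: 0% = full activity with enzyme and -100% = basal without enzyme; dose as in the result columns while the protocol names 77 µM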
The depositor's hits bear a star. A portion of the library (hit frequency here may not be typical).

How did Cn1nc(C(=O)NCc2cccc(F)c2)cc1C(=O)NCc1cccc(F)c1 do in these assays?
Rango release inh: 10%; Rango-impB inh: -0.7%

How did O=C(N/N=C/c1ccccc1[N+](=O)[O-])C(=O)N1CCCC1 do in these assays?
Rango release inh: 1%; miR-21 reporter: -23%; Rango-impB inh: -2.8%; GLA inh pH 4.5: -14

Results for COc1cccc(-c2ccc(NC(=O)C3CCCN(Cc4cnn(C(C)C)c4)C3)cc2)c1 (stereo not given) ?
Rango release inh: 6%; miR-21 reporter: 19%; Rango-impB inh: 1.2%

Results for O=C1CC2(CCN(C(=O)C(=O)c3c[nH]c4ccccc34)CC2)Oc2ccccc21 ?
Rango release inh: 10%; miR-21 reporter: -8%; Rango-impB inh: 1.6%

How did O=C(N/N=C/C=C\c1ccco1)c1ccccn1 do in these assays?
Rango release inh: -1%; miR-21 reporter: 2%; Rango-impB inh: -2.2%; GLA inh pH 4.5: 2

What do the screens show for `NS(=O)(=O)c1ccc(NNC(=O)c2ccc(Br)o2)c([N+](=O)[O-])c1`?
Rango release inh: 3%; Rango-impB inh: 0.7%

What do the screens show for `COc1ccc(-c2nc(C#N)c(N3CCN(c4cccc(Cl)c4)CC3)o2)cc1OC`?
Rango release inh: -2%; miR-21 reporter: -2%; Rango-impB inh: 4.3%; GLA inh pH 4.5: -3

How did CC1=NN(C(=O)c2ccc(Br)cc2)C(O)(C(F)(F)OC(F)(F)F)C1 (stereo not given) do in these assays?
Rango release inh: -12%; miR-21 reporter: -3%; Rango-impB inh: 2.7%; GLA inh pH 4.5: -6

How did COc1ccc(CC(=O)N/N=C(\C)CC(=O)NCc2ccco2)cc1OC do in these assays?
Rango release inh: 6%; miR-21 reporter: -7%; Rango-impB inh: 0.5%; GLA inh pH 4.5: 3

How did COc1ccccc1-c1coc2cc(OC(=O)/C=C/c3ccccc3)ccc2c1=O do in these assays?
Rango release inh: -6%; miR-21 reporter: -12%; Rango-impB inh: 3.5%; GLA inh pH 4.5: 3

How did C=CCc1cccc2cc(C(=O)Nc3ccccc3C(=O)O)c(=O)oc12 do in these assays?
Rango release inh: 0%; miR-21 reporter: 22%; Rango-impB inh: 0.2%; GLA inh pH 4.5: 0

How did CCCCn1c(N)c(N(C)C(=O)c2cc3c(s2)CCCCC3)c(=O)[nH]c1=O do in these assays?
Rango release inh: -14%; Rango-impB inh: inconclusive

Quoted at random: four compounds from above, in no set order.
How did Cn1nc(C(=O)NCc2cccc(F)c2)cc1C(=O)NCc1cccc(F)c1 do in these assays?
Rango release inh: 10%; Rango-impB inh: -0.7%

How did CC1=NN(C(=O)c2ccc(Br)cc2)C(O)(C(F)(F)OC(F)(F)F)C1 (stereo not given) do in these assays?
Rango release inh: -12%; miR-21 reporter: -3%; Rango-impB inh: 2.7%; GLA inh pH 4.5: -6

How did CCCCn1c(N)c(N(C)C(=O)c2cc3c(s2)CCCCC3)c(=O)[nH]c1=O do in these assays?
Rango release inh: -14%; Rango-impB inh: inconclusive

How did COc1ccc(CC(=O)N/N=C(\C)CC(=O)NCc2ccco2)cc1OC do in these assays?
Rango release inh: 6%; miR-21 reporter: -7%; Rango-impB inh: 0.5%; GLA inh pH 4.5: 3

Other results follow.
Results for COc1ccccc1Nc1cc(C)nc(Nc2ccccc2OC)n1 ?
Rango release inh: 0%; Rango-impB inh: 4.5%

What do the screens show for `Cc1cc(Cl)ccc1OCC(=O)NCCC(=O)O`?
Rango release inh: -18%; miR-21 reporter: -4%; Rango-impB inh: 2.3%; GLA inh pH 4.5: 7

How did COc1ccc(CCNC(=O)CNS(=O)(=O)c2cccs2)cc1OC do in these assays?
Rango release inh: -13%; miR-21 reporter: -6%; Rango-impB inh: 2.2%; GLA inh pH 4.5: -4

How did Cc1ccc(N2C(=O)[C@@H]3C(C(=O)CCN4C(=O)c5ccccc5C4=O)=NN[C@@H]3C2=O)cc1 do in these assays?
Rango release inh: -10%; miR-21 reporter: -1%; Rango-impB inh: -0.8%; GLA inh pH 4.5: -9

How did COc1ccc([C@@H]2CC=C(C(=O)O)[C@H](c3ccc(Br)cc3)N2S(=O)(=O)c2ccc(C)cc2)cc1OC do in these assays?
Rango release inh: 7%; Rango-impB inh: 0.3%

Results for Cc1ccc2nc(NC(=O)c3ccc(N4C(=O)CCC4=O)cc3)sc2c1 ?
Rango release inh: -6%; miR-21 reporter: -26%; Rango-impB inh: -2.3%; GLA inh pH 4.5: -5

Results for Cc1cccc(NC(=O)CSc2nc(N)c(NC(=O)c3ccccc3F)c(=O)[nH]2)c1 ?
Rango release inh: 6%; miR-21 reporter: 1%; Rango-impB inh: 2.9%

How did COc1ccc(CN2C[C@H](Cc3ccccc3)[C@@H](CC(=O)Nc3ccccc3)C2=O)cc1 do in these assays?
Rango release inh: -7%; miR-21 reporter: 18%; Rango-impB inh: -3.9%

Results for COc1cccc(NC(=O)Nn2cnnc2)c1 ?
Rango release inh: 0%; miR-21 reporter: 0%; Rango-impB inh: 0.3%

What do the screens show for `COc1cc2nc(SCc3ccc(C(F)(F)F)cc3)n(Cc3cccs3)c(=N)c2cc1OC`?
Rango release inh: 7%; miR-21 reporter: -4%; Rango-impB inh: 0.7%; GLA inh pH 4.5: -6

Results for Fc1ccccc1Cn1nnc2c(-n3ccnc3)ncnc21 ?
Rango release inh: -10%; miR-21 reporter: 5%; Rango-impB inh: 2.2%; GLA inh pH 4.5: -1

Results for COc1ccccc1Nc1nc(-c2cccc([N+](=O)[O-])c2)cs1 ?
Rango release inh: inconclusive; miR-21 reporter: -42%; Rango-impB inh: 0.4%; GLA inh pH 4.5: 0

Compounds shown so far containing an NH in an aromatic ring:
Results for O=C1CC2(CCN(C(=O)C(=O)c3c[nH]c4ccccc34)CC2)Oc2ccccc21 ?
Rango release inh: 10%; miR-21 reporter: -8%; Rango-impB inh: 1.6%

How did CCCCn1c(N)c(N(C)C(=O)c2cc3c(s2)CCCCC3)c(=O)[nH]c1=O do in these assays?
Rango release inh: -14%; Rango-impB inh: inconclusive

Results for Cc1cccc(NC(=O)CSc2nc(N)c(NC(=O)c3ccccc3F)c(=O)[nH]2)c1 ?
Rango release inh: 6%; miR-21 reporter: 1%; Rango-impB inh: 2.9%

Following part:
How did Cc1ccc(/C=C2\Oc3cc(OCC(=O)NN)ccc3C2=O)o1 do in these assays?
Rango release inh: inconclusive; miR-21 reporter: -4%; Rango-impB inh: inconclusive

What do the screens show for `COc1cc(C(=O)Nc2ccccn2)cc(OC)c1OC`?
Rango release inh: 2%; miR-21 reporter: 0%; Rango-impB inh: 4.8%; GLA inh pH 4.5: 1

How did CN1CCN(C(c2ccc(Cl)cc2)c2cc(Cl)c3cccnc3c2O)CC1 (stereo not given) do in these assays?
Rango release inh: 2%; miR-21 reporter: 27%; Rango-impB inh: 1.6%

Results for O=C(Nc1ccc2oc(-c3cccnc3)nc2c1)c1ccc([N+](=O)[O-])o1 ?
Rango release inh: 5%; miR-21 reporter: -9%; Rango-impB inh: -2.1%; GLA inh pH 4.5: 4

What do the screens show for `CN(C)CCC(Oc1ccccc1OCc1ccccc1)c1ccccc1` (stereo not given)?
Rango release inh: 13%; Rango-impB inh: -1.0%

Results for O=C(NCc1n[nH]c(=S)n1-c1ccc(F)cc1)c1ccc(S(=O)(=O)N2CCCCC2)cc1 ?
Rango release inh: -17%; miR-21 reporter: -2%; Rango-impB inh: -0.6%

Results for Cc1ccc(NC(=O)CS(=O)(=O)c2cn(C)c3ccccc23)c(C)c1 ?
Rango release inh: -15%; miR-21 reporter: 0%; Rango-impB inh: 1.5%; GLA inh pH 4.5: 0

Results for CCOC(=O)Cc1csc(NC(=O)CCc2ccc(S(=O)(=O)N3CCOCC3)cc2)n1 ?
Rango release inh: 13%; miR-21 reporter: 0%; Rango-impB inh: 5.8%; GLA inh pH 4.5: 4

Results for C=CCn1c(=O)c2ccccc2n2c(SCC(=O)NC(C)C)nnc12 ?
Rango release inh: -5%; miR-21 reporter: 2%; Rango-impB inh: 1.3%

Results for CC12CCC(=O)N1C(C(=O)Nc1nnc(SCc3ccccc3F)s1)CS2 (stereo not given) ?
Rango release inh: -4%; miR-21 reporter: -23%; Rango-impB inh: 1.6%

Results for COc1ccc(N2CCN(c3oc(COc4ccccc4Cl)nc3C#N)CC2)cc1 ?
Rango release inh: -3%; miR-21 reporter: -17%; Rango-impB inh: -5.8%; GLA inh pH 4.5: -5

How did COc1ccc(CNC(=O)CSc2nnc3c(Cl)cc(C(F)(F)F)cn23)cc1OC do in these assays?
Rango release inh: -8%; miR-21 reporter: 0%; Rango-impB inh: -3.1%; GLA inh pH 4.5: -8

Results for COc1ccc(-c2sc3cc(OC)c(OC)cc3c2-c2ccc(O)cc2)cc1 ?
Rango release inh: 7%; Rango-impB inh: -0.3%

Results for COCCOC(=O)C1=C(C)N=C2SCCC(=O)N2C1c1cccs1 (stereo not given) ?
Rango release inh: 1%; miR-21 reporter: 2%; Rango-impB inh: -0.2%; GLA inh pH 4.5: -21

Results for Cc1cc(NCC2CCCCC2)nc2ccccc12 ?
Rango release inh: -3%; miR-21 reporter: 0%; Rango-impB inh: 1.7%

How did Cc1ccc(/C=N\NC(=O)c2ccc(Cn3cc(Br)c([N+](=O)[O-])n3)o2)o1 do in these assays?
Rango release inh: 5%; miR-21 reporter: -4%; Rango-impB inh: -0.6%; GLA inh pH 4.5: 0

How did O=C(CN1CCCCC1)NNc1nc(-c2ccccc2)c2cc(Br)ccc2n1 do in these assays?
Rango release inh: 17%; miR-21 reporter: -3%; Rango-impB inh: 1.8%; GLA inh pH 4.5: -28

What do the screens show for `COC(=O)c1ccc(NC(=O)CN(c2ccc(OC)cc2)S(C)(=O)=O)cc1`?
Rango release inh: 3%; miR-21 reporter: -52%; Rango-impB inh: -3.1%; GLA inh pH 4.5: 15

What do the screens show for `CN(c1ccc(OC(=O)CN2C(=O)NC3(CCCC3)C2=O)cc1)S(=O)(=O)c1ccccc1`?
Rango release inh: 32%; Rango-impB inh: -3.2%

What do the screens show for `O=C(Nc1ccc2c(c1)OCCO2)N1CCOCC1`?
Rango release inh: 23%; miR-21 reporter: -52%; Rango-impB inh: 1.9%; GLA inh pH 4.5: 12

Results for Cc1ccc(S(=O)(=O)N/N=C/c2cccc([N+](=O)[O-])c2)cc1 ?
Rango release inh: -3%; miR-21 reporter: -4%; Rango-impB inh: 0.6%; GLA inh pH 4.5: 2

What do the screens show for `COc1ccc2c(ccc[n+]2[O-])c1`?
Rango release inh: 0%; Rango-impB inh: -2.2%

How did O=C(CN1CCOCC1)Nc1ccc(-c2nc3ccccc3[nH]2)cc1 do in these assays?
Rango release inh: 11%; miR-21 reporter: -39%; Rango-impB inh: 2.9%; GLA inh pH 4.5: 0

Results for COc1ccccc1CN(C)C(=O)CSc1nnc(C2CC2)n1C1CC1 ?
Rango release inh: -5%; Rango-impB inh: 0.2%

What do the screens show for `Cc1nc(-c2ccc(S(=O)(=O)Nc3ccccc3C)cc2)co1`?
Rango release inh: -7%; miR-21 reporter: 0%; Rango-impB inh: -1.0%

Results for COc1ccc(NC(C)(C)c2nnnn2-c2c(C)cccc2C)cc1 ?
Rango release inh: -15%; miR-21 reporter: -5%; Rango-impB inh: 1.7%; GLA inh pH 4.5: 2

What do the screens show for `Cc1ccccc1C(=O)N1CCN(c2ccc(NC(=O)c3cccc(OC(C)C)c3)cc2)CC1`?
Rango release inh: 0%; miR-21 reporter: 3%; Rango-impB inh: 0.2%

What do the screens show for `O=C(NCc1ccccn1)C(C(=O)c1ccc(F)cc1)n1ccccc1=O` (stereo not given)?
Rango release inh: -1%; miR-21 reporter: -2%; Rango-impB inh: -0.4%; GLA inh pH 4.5: 2

How did O=C(/C=C/c1ccccc1)NCCS(=O)(=O)N1CCN(c2ccc(F)cc2)CC1 do in these assays?
Rango release inh: 17%; Rango-impB inh: 3.1%

How did CCOC(=O)CSC1=NC(=O)/C(=C\c2ccc(Cl)cc2)S1 do in these assays?
Rango release inh: -16%; miR-21 reporter: -42%; Rango-impB inh: 5.5%; GLA inh pH 4.5: -5

Results for COc1ccc(C2=CC(=O)CC(c3ccc(F)cc3)C2)cn1 (stereo not given) ?
Rango release inh: 22%; Rango-impB inh: 0.1%
